Screening results deposited in PubChem BioAssay by ICCB-Longwood Screening Facility, Harvard Medical School.
Sa helicase inh: S. aureus DNA helicase inhibition. 120,000 compounds, 0.05% hits. purified S. aureus helicase, fluorescence unwinding assay; about half of the hits fall short of the stated cut. inhibition, %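 (tested at about 80 µM)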;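 active means both duplicates at 50% or more, or one of them with a favoured structure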;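 further: 0% = mean of negative control wells and 100% = mean of positive control wells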
MgrA DNA FP: alters Staphylococcus aureus MgrA binding to DNA. fluorescence polarization. inhibition, %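 (about 10 µg/mL by stock and volumes)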. 84,000 compounds, 0.13% hits;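 active means above 50% in either of two replicates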;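 further: 0% = protein plus DNA without compound and 100% = DNA alone without protein; higher means less MgrA bound to DNA so lower polarization; one replicate is shown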
* = called active by the depositor; · = not tested or not shown. These rows are one share of the data, so the mix of outcomes need not match the whole.

The first 2 entries, to show the layout:
smiles	Sa helicase inh	MgrA DNA FP
N#Cc1sccc1NS(=O)(=O)c1cccc(C(F)(F)F)c1	·	-3.1
COc1ccc(OC)c(NC(=O)c2ccc3c(c2)CCCN3S(C)(=O)=O)c1	23.0	·

The listing (from the top)
smiles	Sa helicase inh	MgrA DNA FP
N#Cc1sccc1NS(=O)(=O)c1cccc(C(F)(F)F)c1	·	-3.1
COc1ccc(OC)c(NC(=O)c2ccc3c(c2)CCCN3S(C)(=O)=O)c1	23.0	·
Cc1ccc(C(=O)c2oc3ccccc3c2NC(=O)CCCN2C(=O)c3ccccc3C2=O)cc1	-6.0	-0.3
CN(C(=O)COC(=O)c1ccc(C(C)(C)C)cc1)c1ccccc1	-12.0	-0.9
COc1ccc(N/N=C(\C#N)C(=O)NCCc2ccc(OC)c(OC)c2)cc1	-18.0	·
O=C(c1ccccc1)N1CCN(C(=O)c2ccccc2)CC1	-3.0	-0.5
CN(Cc1ccccc1)C(=O)c1ccco1	-4.0	-0.8
CCOC(=O)/C(=N\Nc1cccc(C(F)(F)F)c1)N(C)C1CCS(=O)(=O)C1 (configuration not stated)	-6.0	·
CC(C)(C)NC(=S)Nc1ccc2nccnc2c1	5.0	-1.6
CCCSc1nc2ccccc2n1CC(=O)NCc1ccccc1OC	-6.0	2.6
Cc1ccc(CCNC(=O)c2cc3c(C)nccc3[nH]c2=O)cc1	-2.0	-1.5
Cc1nn(-c2ccccc2)c(N2CCCCC2)c1/C=N/O	6.0	·
CN(C)CCN(C)CC1=CCC2CC1C2(C)C (configuration not stated)	6.0	-3.3
S=c1nc(C2CC2)[nH]c2ccccc12	2.0	4.4
O=C1c2cccc3cc([N+](=O)[O-])cc(c23)C(=O)N1Cc1ccncc1	·	-1.2
CCCC(=O)NCCc1nc2ccccc2n1CCC	11.0	3.8
CC1CCCN(S(=O)(=O)c2ccccc2)C1 (configuration not stated)	3.0	-1.2
O=C(/C=C1/Sc2ccccc2N(Cc2ccc(F)cc2)C1=O)N1CCCC1	6.0	1.6
COc1ccccc1OCC(=O)Nc1nc(-c2cccs2)c(NC(=O)c2ccccc2)s1	11.0	·
C(#Cc1ccccc1)CN1CCN(c2ccccn2)CC1	-2.0	-2.8
O=S(=O)(NCC(c1ccccc1)N1CCN(Cc2ccccc2)CC1)c1ccccc1 (configuration not stated)	14.0	·
CCOC(=O)c1c(N)n(-c2cccc(S(=O)(=O)N(CC)CC)c2)c2nc3ccccc3nc12	9.0	·
O=C(OCCCn1c(=O)[nH]c2ccccc21)c1ccc2c(c1)S(=O)(=O)c1ccccc1C2=O	-10.0	·
CCCC(=O)Nc1nc(-c2cc3ccccc3oc2=O)cs1	-5.0	·

Four structures out of the list, arranged by number of heavy atoms, smallest number first:
smiles	Sa helicase inh	MgrA DNA FP
S=c1nc(C2CC2)[nH]c2ccccc12	2.0	4.4
C(#Cc1ccccc1)CN1CCN(c2ccccn2)CC1	-2.0	-2.8
O=C1c2cccc3cc([N+](=O)[O-])cc(c23)C(=O)N1Cc1ccncc1	·	-1.2
O=S(=O)(NCC(c1ccccc1)N1CCN(Cc2ccccc2)CC1)c1ccccc1 (configuration not stated)	14.0	·

Additional structures:
smiles	Sa helicase inh	MgrA DNA FP
CC1CCC(NC(=O)COc2ccccc2C(N)=O)CC1 (configuration not stated)	5.0	·
CC(=O)Nc1ccc(NS(=O)(=O)c2cccc3c2C(=O)c2ccccc2C3=O)cc1	·	-0.9
COC(=O)C1=C(C)C(c2ccccc2OC)NC(=O)N1 (configuration not stated)	14.0	0.1
CCN(CC1COc2ccccc2O1)C(=O)c1ccccc1Cl (configuration not stated)	-6.0	·
Cc1ccc2c(c1)c1c3n2CCN(S(C)(=O)=O)C3CCC1 (configuration not stated)	3.0	5.7
CC(=O)Nc1cccc(/C(C)=N/N=C2/NC(=O)C(CC(=O)Nc3ccc(Cl)cc3)S2)c1 (configuration not stated)	3.0	1.6
COc1cccc(CNC(=O)Cn2ncn3cccc3c2=O)c1	6.0	-1.3
CCOc1ccc(C(=O)Nc2c(C)ccc3nsnc23)cc1Br	10.0	1.1
CN(C)c1nc(SCCOC(=O)Nc2ccccc2)nc(N(C)C)n1	·	0.2
COC(=O)Nc1ccc2c(c1)C(=O)NC2=O	3.0	·
Cc1ccc(Sc2cc(C)nc(-c3ccccn3)n2)cc1	·	-1.5
COc1ccc(C(=O)NC2CCCCCC2)c(OC)c1OC	-12.0	·
CCOC(=O)c1ccc(-c2coc3cc(OC)c(CC)cc3c2=O)o1	-18.0	·
COc1ccc(C2CC(c3c(O)c4ccccc4oc3=O)=NCCN2Cc2cccc(C)c2)cc1 (configuration not stated)	5.0	-1.2
O=C(Cc1ccccc1)NCC(c1cccs1)N1CCOCC1 (configuration not stated)	10.0	-2.0
O=C(Nc1ccccc1-c1nc2ccccc2o1)c1ccco1	-22.0	·
CN1CC(=O)N(CN2CCN(S(=O)(=O)c3ccccc3C#N)CC2)C1=O	2.0	·
O=C(/C=C/c1ccco1)OCc1nnc(-c2ccccc2)o1	10.0	·
O=C(CNS(=O)(=O)c1cccs1)NCc1ccccc1	2.0	·
O=C1NC(=NC2CCCC2)S/C1=C\c1ccc(-c2ccc(F)cc2)o1	-13.0	·
CCCN(CCN1CCNCC1)C(O)C1C(=O)CC(C)(C)CC1=O (configuration not stated)	-6.0	0.2
N#CCCn1cc(/C=C2\SC(=S)NC2=O)c(-c2cccc3ccccc23)n1	-3.0	·
FC(F)(F)c1ccc(Nc2ccc3c(c2)CCC3)nc1	-14.0	·
COc1ccc(-c2c(-c3ccc(O)cc3O)n[nH]c2C(F)(F)F)cc1	2.0	·
COC(=O)C(CC(C)C)NC(=O)Cn1cnc2ccccc2c1=O (configuration not stated)	6.0	·
O=C(COC(=O)C1CC(=O)N(Cc2ccccc2)C1)c1ccc(F)cc1 (configuration not stated)	11.0	·
Cc1c(-n2c(-c3ccccc3Br)n[nH]c2=S)c(=O)n(-c2ccccc2)n1C	5.0	·
CC(=O)Nc1cccc(Oc2cc(C#N)c(C#N)cc2N2CCCCCC2)c1	-7.0	2.3
Cc1ccc(-c2nn(-c3ccccc3)cc2C#N)o1	-4.0	·
CCc1ccc(N2CCN(CCNC(=O)Nc3ccccc3)CC2)cc1	6.0	2.3
CCOc1ccccc1C(=O)NCCc1ccccc1	14.0	-0.5
COc1cc(CNC(C)C)cc(OC)c1	19.0	-3.9
Cc1nn2c(=O)/c(=C/C=C/c3ccccc3)sc2nc1=O	-3.0	6.0
CCc1cc(Br)ccc1OCC(=O)O	12.0	1.4
CN(C)S(=O)(=O)c1ccc2oc3nnc(SCC(=O)C(C)(C)C)n3c2c1	2.0	·
CCOC(=O)c1cnc(SCC(=O)c2ccc(Cl)cc2Cl)[nH]1	·	0.0
CCCOc1ccc(/C=N/NC(=O)c2cccc(S(=O)(=O)N3CCOCC3)c2)c(O)c1	0.0	·
O=C(CCC(=O)c1cccs1)Nc1ccc(OCc2ccccc2)cc1	-19.0	1.8
Cc1noc(-c2ccccc2)c1NC(=O)Nc1ccc2sccc2c1	-11.0	·
S=c1sc2c(s1)SCCS2	-11.0	·
COc1ccccc1OCC(=O)N1CCN(c2ccccc2)CC1	13.0	·
O=C(CSc1ncn[nH]1)N1c2ccccc2Sc2ccccc21	·	-1.0
COC(=O)c1cc(S(=O)(=O)NCC2CN(Cc3ccccc3)CN(Cc3ccccc3)C2)oc1C	·	1.4
CCC(=O)NC(Nc1sc(C)c(CC)c1C#N)(C(F)(F)F)C(F)(F)F	17.0	-2.0
COc1ccc2cc3c(N)nn(C(=O)CCn4c(=S)oc5ccccc54)c3nc2c1	16.0	-6.3
CC(=O)Nc1ccc(NS(C)(=O)=O)cc1	1.0	0.6
Oc1ccccc1-c1nc(-c2ccc3c(c2)CCO3)n[nH]1	·	-1.7
O=C(c1ccc(Cl)c(S(=O)(=O)NCc2cccnc2)c1)N1CCN(c2ncccn2)CC1	-4.0	·
CN=CC1=C(O)C(C(=O)OC)C(C)(C)CC1=O (configuration not stated)	11.0	-1.4
Cc1ccc(Nc2cc(C)c3ccccc3n2)cc1	33.0	·
CC(C)(C)C(=O)Nc1ccccc1Cc1ccccc1	·	-2.5
CC(C)n1cc(C(N)=S)c(=O)n(Cc2ccccc2)c1=O	·	0.2
O=C(O)CC1CCCCO1 (configuration not stated)	19.0	-5.8
Cc1ccc2cc(C#N)c(=O)[nH]c2c1	2.0	·
CC(=O)N1CCOc2cc(S(=O)(=O)N3CCCc4ccccc43)ccc21	5.0	1.4
Cc1onc(-c2ccccc2)c1CN1CCS(=O)(=O)CC1	·	-2.2
O=C(Nc1ccc(F)cc1)c1cccc2c1C(=O)N(Cc1ccccn1)C2	8.0	·
N#C/C(=C\c1ccc(N2CCOCC2)cc1)C(=O)NCc1ccccc1	-21.0	·
NNC(=O)C1SCCN1S(=O)(=O)c1ccc(Cl)cc1 (configuration not stated)	·	-0.3
COC(=O)c1ccc(COC(=O)C(c2ccccc2)c2ccccc2)o1	16.0	·

(next part)
smiles	Sa helicase inh	MgrA DNA FP
Cc1ccc2c(c1)C(=O)C(O)(c1ccccc1)C(=O)N2 (configuration not stated)	·	-1.4
CC(NC(=O)c1ccc(Cl)cc1)C(=O)N1CCCCC1 (configuration not stated)	-10.0	·
COC(CNc1cccc(Cl)c1C#N)OC	·	-0.8
CCCN1C2CCCC1CC(NC(=O)c1ccc(F)cc1)C2 (configuration not stated)	8.0	3.7
CC1CCCCN1CC(O)COc1c(F)cc(Br)cc1F (configuration not stated)	-25.0	·
CC1(C)CC(=O)c2cnc(NCCc3ccccc3)nc2C1	-4.0	-1.4
NC(=O)c1ccccc1NC(=O)COC(=O)CC1CC2CCC1C2 (configuration not stated)	7.0	-0.4
O=C(O)c1cccc2[nH]c(=O)c(=O)[nH]c12	-1.0	-2.6
CC(CCc1ccccc1)NC(=O)COc1cc(=O)n(C)c2ccccc12 (configuration not stated)	16.0	2.2
O=C1NC(=Nc2ccccc2)S/C1=C/c1cc(Br)ccc1O	·	-1.1
Cc1cc(OCC(=O)Nc2c(C)ccc3nsnc23)ccc1Cl	5.0	-0.2
O=C(Nc1ccc(Br)cc1)c1ccc(-n2cccn2)cc1	-13.0	4.0
CC(C)=CC(=O)Nc1ccc(S(N)(=O)=O)cc1	8.0	1.6
CCc1cccc(NC(=O)c2cccc3c2C(=O)N(CC2CCCO2)C3)c1 (configuration not stated)	19.0	3.3
CCn1c(-c2ccccc2)c(C(=O)COC(=O)/C=C/c2ccco2)c2ccccc21	14.0	·
C/C=N/N=C1/NC(=O)C(CC(=O)Nc2cccc(C)c2C)S1 (configuration not stated)	5.0	1.6
O=C(CC1CCCC1)Nc1cc2c(cc1Br)OCCO2	-7.0	·
CC(=O)Nc1ccc(/C=C2\N=C(C)OC2=O)cc1	·	-0.9
O=C(c1cc(NS(=O)(=O)c2ccc(F)cc2)ccn1)N1CCc2ccccc21	-20.0	·
Cc1cc(C(=O)OCc2cc(=O)oc3c(C)c(C)ccc23)on1	-6.0	·
CCc1ccc(C2CC(=O)NC(SCC(=O)Nc3ccccc3)=C2C#N)cc1 (configuration not stated)	-9.0	·
CCC(C)NC(=O)c1ccc(-n2ccc3ccccc32)s1 (configuration not stated)	13.0	·
CN(CP(=O)(O)CN1CCOCC1)S(C)(=O)=O	6.0	-3.1
N#Cc1c(-c2ccncc2)[nH]c(=S)[nH]c1=O	-19.0	·
N#CC1(C#N)C(C(N)=O)C1c1ccccc1 (configuration not stated)	·	2.4
CC(C)c1ccccc1NC(=O)/C=C/c1ccco1	2.0	1.8
C=CCSc1n[nH]c(-c2cccs2)n1	·	3.9
O=C(O)C1(NS(=O)(=O)c2ccc(F)cc2)CCCCC1	-2.0	·
O=C1Nc2ccccc2/C1=C\c1cccc2ccccc12	·	-0.5
CSc1ncccc1C(=O)OCc1cc(=O)n2cc(C)ccc2n1	-12.0	·
Cc1ccc(C)c2[nH]c(=O)c(CCNC(=O)c3ccc(Br)o3)cc12	4.0	·
O=C(OCc1nnc(-c2ccccc2)o1)C1CCN(C(=O)c2ccc(Cl)cc2)CC1	9.0	·
Cc1ccc2c(c1)-c1c(cnn1CC(=O)NC1CCCCC1C)CO2 (configuration not stated)	9.0	-1.2
N#Cc1ccc(CC2=C(O)CC3(CCCCC3)CC2O)cc1 (configuration not stated)	9.0	·
CC1CCN(C(=O)CSc2ncnc3ccccc23)CC1	5.0	-0.7
O=C(Nc1ccc(N2CCOCC2)cc1)c1ccc(-n2cccn2)cc1	·	-1.0
CCOC(=O)NC(c1ccccc1)C1CCCCC1=O (configuration not stated)	-7.0	·
COc1ccc(/C=C2/C(=O)N(c3ccccc3)N=C2C)cc1	·	1.7
CSc1n[nH]c(NC(=O)c2cccs2)c1-c1ccccn1	·	-3.1
O=C(Oc1ccc2c(c1)OCO2)c1cccc(Cl)c1	2.0	·
Cc1cccc(-n2[nH]nnc2=S)c1C	-9.0	·
CC(OC(=O)c1cc2ccccc2[nH]1)C(=O)NC1CC1 (configuration not stated)	8.0	·
O=C(Nc1ccc2c(c1)OCO2)N1CCCc2ccccc21	8.0	2.6
Cc1nc2ncnn2c(C)c1CCC(=O)NCc1ccco1	-3.0	·
CCN1C(C(=O)c2ccccc2)=C(OC(=O)c2ccco2)c2ccccc2S1(=O)=O	12.0	·
